# Screening results (PubChem BioAssay)
# Vaccinia inh: Vaccinia orthopox stage-specific inhibition | Vaccinia-infected cells, mCherry/Venus stage reporter fluorescence; active compounds read low; some inactives read as strong as hits | activity change (mCherry), % (no concentration beside the values) | 0.01% of 89,000 active;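 active means mCherry past -33% and 40 or more points under the early reporter, replicates agreeing; inconclusive means past -33% without that gap or agreement; tested in A549 cells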;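 further: scaled between vehicle wells and reference inhibitor wells; 23 nL library stock went into each well; one replicate is shown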
# Vaccinia inh Venus: further read-out of Vaccinia inh, marked with its call; activity change (Venus), %; measured here: Venus reporter, other viral stage;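 negative = less Venus signal; first of two replicates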
# Numbers without * were called inactive; ? = inconclusive; / = not tested or not shown; & = joins results of further samples. These rows are one share of the data. The share of hits here may be higher or lower than overall.
SMILES,Vaccinia inh,Vaccinia inh Venus
C[C@H](CO)N1C[C@H](C)[C@H](CN(C)S(C)(=O)=O)Oc2ccc(NC(=O)Nc3ccc4c(c3)OCO4)cc2CC1=O,5.9,-3.2
C[C@@H]1CCCCO[C@@H](CN(C)S(=O)(=O)c2cn(C)cn2)[C@@H](C)CN([C@H](C)CO)C(=O)c2cc(NC(=O)Nc3cccc4ccccc34)ccc2O1,37.0,15.0
O=C(Nc1ccccc1)N1C[C@@H]2[C@H](c3ccccc31)[C@H](CO)N2C(=O)c1ccccn1,10.2,5.6
CO[C@H]1CN(C)C(=O)c2ccc(NC(C)=O)cc2OC[C@@H](C)N(C(=O)c2ccccn2)C[C@@H]1C,10.5,-1.2
CO[C@@H]1CN(C)C(=O)c2cc(NC(=O)c3ccc(F)cc3)ccc2OC[C@@H](C)N(C(C)=O)C[C@H]1C,-1.3,4.3
C[C@H](CO)N1C[C@H](C)[C@H](CN(C)C(=O)Nc2ccc3c(c2)OCO3)Oc2ncc(C#CCN(C)C)cc2C1=O,9.3,12.0
O=C(C[C@@H]1C[C@@H]2c3cc(NC(=O)Nc4ccccc4)ccc3O[C@@H]2[C@@H](CO)O1)NCc1ccccc1,-3.3,-0.1
Cc1ccccc1S(=O)(=O)N1CC(=O)N2[C@H](CO)[C@@H](c3ccc(C#CCC4CCCC4)cc3)[C@H]2C1,-16.2,-12.4
C/C=C/c1ccc([C@H]2[C@@H](CO)N(C(=O)NC3CCCC3)[C@H]2C#N)cc1,-4.8,-4.9
CN(C)C(=O)c1ccc(-c2ccc3c(c2)[C@@H]2[C@@H](CCN2C(=O)C2CCOCC2)[C@@H](CO)N3C)cc1,-1.4,1.6
C[C@H]1CN([C@@H](C)CO)C(=O)Cc2cc(NC(=O)Cc3ccccc3)ccc2O[C@@H]1CN(C)Cc1ccc(Oc2ccccc2)cc1,?,/
C[C@@H]1CN([C@H](C)CO)C(=O)c2cc(NC(=O)Nc3ccc(F)cc3)ccc2O[C@H]1CN(C)S(=O)(=O)c1cn(C)cn1,4.9,11.8
COc1ccc(NC(=O)N[C@@H]2CC[C@H](CCn3cc(-c4ccc(F)cc4)nn3)O[C@H]2CO)cc1,4.8,4.7
C[C@H]1CCCCO[C@H](CN(C)Cc2ccc3c(c2)OCO3)[C@@H](C)CN([C@@H](C)CO)C(=O)c2cc(NC(=O)Nc3ccc(F)cc3)ccc2O1,?,/
O=C(C[C@@H]1CC[C@H](NC(=O)Cc2cccnc2)[C@H](CO)O1)Nc1ccc(-c2ccccc2)cc1,-14.9,-10.9
COc1ccc(S(=O)(=O)Nc2ccc3c(c2)C(=O)N([C@@H](C)CO)C[C@@H](C)[C@@H](CN(C)S(=O)(=O)c2ccccc2)OCCCC[C@H](C)O3)cc1,-17.0,-10.2
CC(C)CC#Cc1cnc2c(c1)C(=O)N([C@@H](C)CO)C[C@H](C)[C@H](CN(C)S(=O)(=O)c1cn(C)cn1)O2,6.0,15.4
COc1ccc(CN(C)C[C@H]2Oc3ccc(NC(=O)NC(C)C)cc3C(=O)N([C@H](C)CO)C[C@H]2C)cc1,-1.7,-5.9
COc1cccc(S(=O)(=O)N2CC3(CN(C(=O)Nc4cccc(F)c4)[C@@H](CO)c4[nH]c5cc(OC)ccc5c43)C2)c1,-23.3,-14.5
CCS(=O)(=O)N1CC2(CN(C(=O)CN3CCOCC3)[C@@H](CO)c3c2c2ccc(OC)cc2n3C)C1,13.9,6.6
C[C@H]1CN([C@@H](C)CO)S(=O)(=O)c2ccc(C3=CCCC3)cc2O[C@H]1CN(C)C(=O)C1CCC1,-1.4,12.3
Cc1cccc(S(=O)(=O)N2CCCCN3[C@H](C2)[C@@H](c2ccc(C#CC(C)C)cc2)[C@@H]3CO)c1,-12.4,-11.0
CCCNC(=O)N(C)C[C@@H]1Oc2ncc(/C=C/c3ccccc3)cc2C(=O)N([C@H](C)CO)C[C@@H]1C,-1.7,4.3
CC(C)NC(=O)N(C)C[C@H]1OCCCC[C@@H](C)Oc2ccc(NC(=O)C3CCCCC3)cc2C(=O)N([C@@H](C)CO)C[C@H]1C,12.6,1.2
COc1ccc(NC(=O)N(C)C[C@H]2Oc3ccc(NC(=O)Cn4cnnn4)cc3CC(=O)N([C@H](C)CO)C[C@@H]2C)cc1,27.7,19.1
CCS(=O)(=O)N1CCC2(CC1)CN(S(=O)(=O)c1ccccc1)[C@H](CO)c1c2c2ccc(OC)cc2n1C,-3.6,2.9
C[C@@H]1CN([C@H](C)CO)C(=O)Cc2cc(NS(=O)(=O)c3ccccc3)ccc2O[C@@H]1CN(C)Cc1ccc2c(c1)OCO2,9.5,12.3
CCCNC(=O)N1C[C@H]2[C@@H](c3ccccc31)[C@@H](CO)N2C(=O)c1ccccc1,11.7,12.0
C[C@H](CO)N1C[C@H](C)[C@H](CN(C)Cc2ccc3c(c2)OCO3)Oc2ncc(-c3cccc(C(F)(F)F)c3)cc2C1=O,?,/
O=C(CC1CC1)N1CC2(C1)[C@H](c1ccccc1)[C@@H](CO)N2C(=O)c1ccccn1,2.3,-0.6

# 4 entries drawn at random from those above, as already listed:
SMILES,Vaccinia inh,Vaccinia inh Venus
CC(C)CC#Cc1cnc2c(c1)C(=O)N([C@@H](C)CO)C[C@H](C)[C@H](CN(C)S(=O)(=O)c1cn(C)cn1)O2,6.0,15.4
COc1ccc(NC(=O)N(C)C[C@H]2Oc3ccc(NC(=O)Cn4cnnn4)cc3CC(=O)N([C@H](C)CO)C[C@@H]2C)cc1,27.7,19.1
CCCNC(=O)N1C[C@H]2[C@@H](c3ccccc31)[C@@H](CO)N2C(=O)c1ccccc1,11.7,12.0
C[C@H](CO)N1C[C@H](C)[C@H](CN(C)Cc2ccc3c(c2)OCO3)Oc2ncc(-c3cccc(C(F)(F)F)c3)cc2C1=O,?,/

# Record cards (already shown). Values in the order: Vaccinia inh, Vaccinia inh Venus
# Entry for COc1ccc(NC(=O)N(C)C[C@H]2Oc3ccc(NC(=O)Cn4cnnn4)cc3CC(=O)N([C@H](C)CO)C[C@@H]2C)cc1 → 27.7, 19.1
# Entry for CCS(=O)(=O)N1CC2(CN(C(=O)CN3CCOCC3)[C@@H](CO)c3c2c2ccc(OC)cc2n3C)C1 → 13.9, 6.6

# Continuation:
SMILES,Vaccinia inh,Vaccinia inh Venus
COc1ccc(S(=O)(=O)N2CC[C@@H]3[C@@H](CO)Nc4ccc(-c5cccc(C#N)c5)cc4[C@@H]32)cc1,-22.9,-22.8
C[C@@H]1CN([C@H](C)CO)C(=O)c2cc(NC(=O)C3CCCCC3)ccc2O[C@H]1CN(C)C(=O)Nc1ccc(F)cc1,2.7,1.7
C[C@H]1CN([C@@H](C)CO)C(=O)c2cc(NC(=O)Nc3cccc4ccccc34)ccc2O[C@@H]1CN(C)Cc1ccc(-c2ccccc2)cc1,2.7,6.6
COC(=O)C[C@@H]1C[C@H]2c3cc(NC(=O)Nc4ccc(C(F)(F)F)cc4)ccc3O[C@H]2[C@@H](CO)O1,-16.1,-12.9
C[C@@H]1CN([C@@H](C)CO)C(=O)c2cccc(NC(=O)Nc3ccc(C(F)(F)F)cc3)c2O[C@H]1CN(C)Cc1ccc(-c2ccccc2)cc1,-2.7,-5.6
C[C@@H]1CN([C@@H](C)CO)C(=O)c2cc(C#Cc3ccccc3)cnc2O[C@@H]1CN(C)C(=O)CN(C)C,7.7,8.3
CO[C@@H]1CN(C)C(=O)c2cc(NC(=O)C3CCC3)ccc2OC[C@@H](C)N(C(=O)c2ccccc2)C[C@H]1C,9.5,10.1
COc1cccc(S(=O)(=O)N[C@H]2C=C[C@H](CC(=O)NC3Cc4ccccc4C3)O[C@@H]2CO)c1,-2.2,-10.7
COc1ccc(NC(=O)Nc2ccc3c(c2)C(=O)N([C@H](C)CO)C[C@@H](C)[C@H](CN(C)S(C)(=O)=O)OCCCC[C@H](C)O3)cc1,10.7,2.4
CCCC#Cc1cnc2c(c1)C(=O)N([C@H](C)CO)C[C@@H](C)[C@H](CN(C)Cc1ccc3c(c1)OCO3)O2,?,/
O=C(Nc1cccc(F)c1)N1CCCCN2[C@@H](CO)[C@H](c3ccc(C#Cc4cccnc4)cc3)[C@@H]2C1,?,/
C[C@@H]1CCCCO[C@@H](CN(C)C(=O)Nc2ccc(F)cc2)[C@H](C)CN([C@H](C)CO)C(=O)c2cc(NC(=O)Cc3ccccc3)ccc2O1,-20.6,-19.1
COc1ccc(S(=O)(=O)Nc2ccc3c(c2)C(=O)N([C@H](C)CO)C[C@@H](C)[C@H](CN(C)C(=O)c2ccccc2)OCCCC[C@@H](C)O3)cc1,-12.6,-1.2
O=C(C[C@H]1CC[C@@H]2[C@H](COC[C@H](O)CN2S(=O)(=O)c2ccc(F)cc2)O1)NCCN1CCCCC1,-4.6,-8.9
CN1CCN(C(=O)C[C@H]2CC[C@H]3[C@@H](COc4ccc(NC(=O)c5ccc(F)c(F)c5)cc4C(=O)N3C)O2)CC1,8.1,0.1
C[C@@H]1CN([C@H](C)CO)S(=O)(=O)c2ccc(-c3cncnc3)cc2O[C@H]1CN(C)C(=O)C1CCC1,-2.7,-0.8
C[C@@H]1CN([C@@H](C)CO)C(=O)c2cc(C#CC3CC3)cnc2O[C@@H]1CN(C)C(=O)Nc1ccccc1,6.7,-9.7
C[C@@H]1CN([C@@H](C)CO)C(=O)c2cccc(NC(=O)C3CC3)c2O[C@@H]1CN(C)Cc1ccc2c(c1)OCO2,9.4,11.3
O=C(Nc1ccc(F)cc1)N1CC(=O)N2[C@H](CO)[C@@H](c3ccc(C#Cc4ccc(F)cc4)cc3)[C@H]2C1,?,/
C[C@@H]1CN([C@@H](C)CO)S(=O)(=O)c2ccc(C#Cc3cccnc3)cc2O[C@H]1CN(C)C(=O)CN(C)C,-1.1,-0.6
C[C@H](CO)N1C[C@H](C)[C@@H](CN(C)C(=O)Nc2ccc3c(c2)OCCO3)OCc2cn(nn2)CCCC1=O,11.7,14.4
COc1cccc(S(=O)(=O)N(C)C[C@@H]2Oc3ncc(C#CCN(C)C)cc3C(=O)N([C@H](C)CO)C[C@H]2C)c1,-0.1&-3.8,3.1&-5.6
C[C@H](CO)N1C[C@H](C)[C@H](CN(C)C(=O)NC2CCCCC2)Oc2ccc(NC(=O)CCC(F)(F)F)cc2C1=O,23.5,12.9
C[C@@H]1CCCCO[C@@H](CN(C)Cc2ccc(C(F)(F)F)cc2)[C@@H](C)CN([C@@H](C)CO)C(=O)c2cc(NC(=O)CCCN(C)C)ccc2O1,?,/
CCC(=O)NC[C@H]1[C@@H](c2ccc(-c3ccc(F)cc3)cc2)[C@@H](CO)N1C(=O)CC,4.9,4.0
O=C(Cc1ccccc1)N1C[C@@H]2[C@H](c3ccccc31)[C@H](CO)N2C(=O)Nc1ccc(F)cc1,-7.1,-5.6
COc1ccc(CN2C[C@@H](C)[C@H](OC)CN(C)C(=O)c3ccc(NC(=O)C4CC4)cc3OC[C@H]2C)cc1,3.4,0.6
COc1ccc(S(=O)(=O)N(C)C[C@@H]2OCCCC[C@H](C)Oc3ccc(NC(=O)C4CCCCC4)cc3C(=O)N([C@@H](C)CO)C[C@H]2C)cc1,-19.4,-12.0
CCC(=O)N1[C@@H]2c3cccc(=O)n3C[C@@H]2[C@@H](CO)[C@@H]1C(=O)N[C@@H](C)c1ccccc1,11.6,2.9
C[C@@H]1CN([C@@H](C)CO)C(=O)c2cc(NC(=O)Nc3ccc(C(F)(F)F)cc3)ccc2O[C@@H](C)CCCCO[C@@H]1CN(C)Cc1ccc(C(=O)O)cc1,22.8,13.3
Cc1noc(C)c1NC(=O)N(C)C[C@@H]1OCCCC[C@H](C)Oc2ccc(NC(=O)Cc3ccccc3)cc2C(=O)N([C@@H](C)CO)C[C@H]1C,15.0,11.0
CCC(=O)Nc1ccc2c(c1)C(=O)N(C)C[C@@H](OC)[C@@H](C)CN(C(=O)c1ccc(F)cc1)[C@H](C)CO2,-0.9,7.3
O=C(N[C@@H]1C[C@@H]2O[C@H](CO)CC[C@@H]2O[C@@H]1CCc1ccc(-c2cccnc2)cc1)c1cccc(F)c1,7.8,17.2
Cc1ccc(S(=O)(=O)N2C[C@H](O)COC[C@@H]3O[C@@H](CC(=O)NCc4ccc5c(c4)OCO5)CC[C@H]32)cc1,-10.0,4.6
CN(C)c1ccc2c(c1)[C@@H]1C[C@H](CC(=O)NCc3cccc(F)c3)O[C@@H](CO)[C@@H]1O2,0.2,12.1
CS(=O)(=O)Nc1ccc2c(c1)[C@H]1C[C@@H](CC(=O)NCc3ccc(Oc4ccccc4)cc3)O[C@H](CO)[C@H]1O2,-34.9,-23.7
N#C[C@H]1[C@@H](c2ccccc2)[C@H](CO)N1C(=O)Cc1ccccc1,14.3,9.8
COc1ccc(NC(=O)Nc2cccc3c2O[C@H](CN(C)Cc2ccc(C(F)(F)F)cc2)[C@H](C)CN([C@@H](C)CO)C3=O)cc1,-22.1,-16.9
CCC(=O)N[C@@H]1CC[C@H](CCNC(=O)Nc2ccc(C(F)(F)F)cc2)O[C@H]1CO,-14.9,-2.2
O=C(C1CCCCC1)N1CC(=O)N2[C@@H](CO)[C@H](c3ccc(C#Cc4cccc(F)c4)cc3)[C@@H]2C1,26.3,24.0
COc1ccc(S(=O)(=O)N(C)C[C@H]2Oc3cc(C4=CCCC4)ccc3S(=O)(=O)N([C@H](C)CO)C[C@@H]2C)cc1,3.3,-0.7
COC(=O)C[C@@H]1CC[C@@H]2[C@@H](COc3ccc(NS(=O)(=O)c4ccc(C)cc4)cc3C(=O)N2C)O1,12.6,7.8
CCCN(C)C[C@H]1Oc2cc(C#CC(C)C)ccc2S(=O)(=O)N([C@H](C)CO)C[C@@H]1C,-32.2,-25.5
O=C(C[C@@H]1C=C[C@H](NS(=O)(=O)c2ccc(F)cc2)[C@H](CO)O1)NCCc1ccncc1,15.5,13.6
C[C@H]1CN([C@@H](C)CO)C(=O)Cc2cc(NC(=O)c3ccncc3)ccc2O[C@@H]1CN(C)C(=O)Nc1ccccc1,19.8,13.2
O=C(C[C@H]1CC[C@@H]2[C@H](COC[C@@H](O)CN2C(=O)c2ccccc2F)O1)NCc1ccc(Cl)c(Cl)c1,-13.5,-1.1
CN(C)CCCNC(=O)C[C@@H]1CC[C@@H]2[C@H](COC[C@@H](O)CN2C(=O)c2ccncc2)O1,13.0,5.6
